Bioassay records from PubChem BioAssay.
A1 inh – caspase 3/7 activation in MEF A1-2A-BIM cells, primary screen, A1 inhibitor project, cell-based, luminescence, HTS | Caspase-Glo 3/7 luminescence, 3 h; percent of clofoctol response, vehicle zero | caspase activation, % (concentration not given with the values) | AID 2462, 2010 | hit rate 0.066% among 330,000;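 active means over half of replicate activation scores above 10%, or exactly half above 10 with the replicate mean above 10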;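 further: wells of about 30 µL received 50 nL stock; many hits fall short of the cut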
T cruzi inh – inhibitors of intracellular T. cruzi growth, primary screen, luminescence, NIH3T3 host cells; T. cruzi beta-gal in NIH3T3, 90 h; inhibition, % (test concentration not listed); AID 1885, 2009; hit rate 1.4% among 300,000;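 active means mean inhibition across valid replicates above about 55%, limit read from the data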;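 further: signal also drops with host cell toxicity which is not excluded here; 0% = plate median of DMSO wells and 100% = zero luminescence signal; higher percent means less beta-gal luminescence so fewer parasites; stock transfer was 50 nL into about 50 µL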
LANA-H2B inh – blockers of LANA interaction with H2A/H2B – biochemical, FP readout, HTS, primary screen. Protein LANA1 (Human herpesvirus 8 type P (isolate GK18)), Q9QR71. cell-free LANA-H2A/H2B peptide, fluorescence polarization. inhibition, % (no concentration beside the values). hit rate 0.6% among 320,000; in the data active means inhibition mostly above about 10%, no sharp cut-off; inactive means mostly below about 6.7%;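 further: stock transfer was 7.5 nL into about 10 µL; 0% = median of vehicle wells and 100% = median of positive control wells; one replicate is shown; the record names a cut of 25% in any replicate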
Target sequence (Q9QR71 whole entry, looked up): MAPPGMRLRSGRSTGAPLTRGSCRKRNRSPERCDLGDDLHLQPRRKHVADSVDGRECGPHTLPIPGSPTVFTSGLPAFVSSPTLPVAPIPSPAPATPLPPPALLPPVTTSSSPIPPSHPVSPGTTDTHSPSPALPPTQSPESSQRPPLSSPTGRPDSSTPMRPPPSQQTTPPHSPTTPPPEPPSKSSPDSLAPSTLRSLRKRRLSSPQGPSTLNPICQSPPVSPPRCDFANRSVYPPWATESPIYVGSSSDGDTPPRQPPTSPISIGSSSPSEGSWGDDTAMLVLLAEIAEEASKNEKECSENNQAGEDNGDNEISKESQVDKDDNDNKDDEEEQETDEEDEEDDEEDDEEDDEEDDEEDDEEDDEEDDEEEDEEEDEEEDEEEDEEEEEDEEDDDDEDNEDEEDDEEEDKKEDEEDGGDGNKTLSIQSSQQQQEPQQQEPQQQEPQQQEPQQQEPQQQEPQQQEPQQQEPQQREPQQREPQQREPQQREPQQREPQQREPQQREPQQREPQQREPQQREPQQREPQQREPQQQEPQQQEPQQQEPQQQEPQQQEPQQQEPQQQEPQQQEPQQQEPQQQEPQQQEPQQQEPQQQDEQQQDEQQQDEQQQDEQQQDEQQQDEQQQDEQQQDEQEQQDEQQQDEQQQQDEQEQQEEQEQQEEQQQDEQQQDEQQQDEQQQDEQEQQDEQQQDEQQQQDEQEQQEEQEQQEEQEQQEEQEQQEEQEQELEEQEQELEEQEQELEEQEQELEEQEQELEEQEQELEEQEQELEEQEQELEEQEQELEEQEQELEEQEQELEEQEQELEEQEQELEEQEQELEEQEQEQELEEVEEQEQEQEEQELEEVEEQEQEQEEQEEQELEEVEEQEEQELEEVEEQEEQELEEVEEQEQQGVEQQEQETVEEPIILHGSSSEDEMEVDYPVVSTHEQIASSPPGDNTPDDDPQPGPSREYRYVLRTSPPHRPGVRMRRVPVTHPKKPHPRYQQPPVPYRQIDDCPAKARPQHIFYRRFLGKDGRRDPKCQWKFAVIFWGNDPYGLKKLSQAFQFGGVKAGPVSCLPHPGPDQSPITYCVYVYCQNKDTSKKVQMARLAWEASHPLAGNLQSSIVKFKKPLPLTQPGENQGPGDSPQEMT
Calb FLC – C. albicans growth inhibition with fluconazole, primary screen, CaCi-2 strain, Alamar Blue fluorescence; C. albicans CaCi-2 (fluconazole-resistant clinical isolate) + fluconazole, 48 h; growth inhibition, % (no concentration beside the values); hit rate 0.57% among 300,000; AID 1979, 2009;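 active means most replicates above 75%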;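 further: all wells also contain fluconazole at 8 µg/ml as a sub-toxic cotreatment; 0% = median of DMSO wells and 100% = median of geldanamycin control wells; wells of about 8 µL received 7.5 nL stock; the first replicate is given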
ALR inh – inhibitors of human ALR sulfhydryl oxidase, primary screen, biochemical, H2O2 detection, HRP-luminol luminescence, single point. inhibition, % (test concentration not listed). FAD-linked sulfhydryl oxidase ALR (Homo sapiens), P55789. purified ALR, DTT oxidation. hit rate 3.8% among 290,000;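 active means mean and each replicate at 75% or more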;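 further: stock transfer was 7.5 nL into about 7.5 µL; 0% = neutral wells and 100% = wells with inactivated enzyme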
Beta cell apopt – inhibitors of cytokine-induced beta cell apoptosis, primary screen, luminescence | INS-1E cytokine-induced death, ATP luminescence, 48 h; percent of positive-control rescue, neutral wells zero | protection from apoptosis, % (concentration not given with the values) | hit rate 0.8% among 300,000;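 active means all replicates at 75% or more, or half of them and the mean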;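 further: 0% = cytokine-treated negative control wells and 100% = positive control rescue; higher means more ATP so stronger rescue from cytokine killing; wells of about 40 µL received 100 nL stock; the first replicate is given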
Ecoli rRNA inh – reduced GFP signal of wild-type E. coli, primary screen, bacterial rRNA inhibitor project, GFP/RFP fluorescence, OD600, single point; E. coli WT GFP vs humanized-ribosome RFP mutants, 24 h; hits give low values; DMSO median 0, no signal -100; GFP signal change (wild-type ribosome), % (test concentration not listed); hit rate 1.6% among 350,000;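 active means significant combined selectivity score with lowered wild-type GFP, culture density cut under 30%, mutant RFP and density less affected; inactive means any of these conditions unmet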; further: one replicate is shown; some compounds called inactive have numbers as strong as hits
Beta2AR agonist – beta2AR agonists driving receptor internalization, primary screen, cell-based, FAP fluorogen, flow cytometry | Am2.2-beta2AR cells; reference of the scale not given here | response, % (concentration not given with the values) | hit rate 0.43% among 340,000;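 active means response above a set limit, near 3 SD of response in nonfluorescent compounds, cut at about 42% in these data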;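 further: stock transfer was 100 nL into about 11 µL; a reference agonist was the positive control; negative values mostly stem from fluorescent compounds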
Ecoli rRNA inh OD600 – second read-out of Ecoli rRNA inh, no call of its own (marks repeat the call); OD600 change, %; measured here: OD600 growth;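 optical density of the mix in the first replicate; 0 = DMSO median and -100 = no signal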
Ecoli rRNA inh RFP – also measured in Ecoli rRNA inh; calls as there; RFP signal change, %; measured here: RFP humanized mutant strains;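 first replicate; 0 = DMSO median and -100 = no signal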
* marks the source's active call; other numbers are inactive results; / = no result given.

Structure,A1 inh,T cruzi inh,LANA-H2B inh,Calb FLC,ALR inh,Beta cell apopt,Ecoli rRNA inh,Ecoli rRNA inh OD600,Ecoli rRNA inh RFP,Beta2AR agonist
COCCN(Cc1ccccc1)C(=S)Nc1ccc(Cl)cc1,0.2,-3,-0.1,-11,-2,-9,-15,-20,1.1,4
Cc1cc(C)n(CCCNC(=O)CN(C)S(=O)(=O)c2ccc(Cl)cc2)n1,-0.4,0,-1.7,3,-2,0,2,5,0.0,-2
Cc1cccc(NC(=O)NCc2ccccn2)c1,-0.1,-7,5.0,-11,/,-3,/,/,/,-3
NC(=O)C1(N2CCCCC2)CCN(C(=S)Nc2cc(F)cc(F)c2)CC1,0.5,-60,-5.0,1,/,-5,19,11,3.7,5
O=C(O)C1C2CCCCC2=C2CCCCC2C1C(=O)O (stereo unspecified),-0.6,-2,2.7,-7,-9,-1,/,/,/,4
Nc1nc(SCC(=O)Nc2cccc(Oc3ccccc3)c2)n[nH]1,1.3,-36,1.5,-9,-5,-2,-24*,-17*,-4.5*,-7
CCCCN=C(C)C1=C(O)CSC1=O,0.2,-9,1.2,15,1,-3,/,/,/,-7
C/C(=N\Nc1nc2ccccc2[nH]1)c1ccc(Cl)s1,0.5,36,-0.8,-37,99*,38,-24,-36,10,-2
COc1ccc(-c2cc3ccc(O)cc3oc2=O)cc1OC,-6.8,-5,-0.9,-5,99*,0,-15,-15,-1.4,2
Cc1ccc(SC(C)C(=O)NCc2cccnc2)cc1 (stereo unspecified),-0.1,-19,2.5,2,-2,-7,/,/,/,5
Cc1c(C2=CCN(S(=O)(=O)c3ccc(Br)cc3)CC2)c2ccccc2n1C,0.8,13,0.7,-7,-1,/,/,/,/,1
C/C(=N\NC(=O)C(=O)Nc1cc(Cl)ccc1Cl)c1ccncc1,-1.0,-6,1.4,-2,-6,4,5,3,0.1,-8
COC(=O)c1ccsc1NS(=O)(=O)c1ccccc1,-0.1,-11,1.4,10,80*,2,15,6,16,4
Cc1ccc(Nc2nc(Oc3ccc(=O)[nH]n3)nc(N(C)C)n2)cc1,-0.8,/,0.4,/,-4,-3,/,/,/,-10
O=C(N/N=C/c1ccccc1OCc1ccccc1Cl)c1cccnc1,1.4,4,-0.2,-10,-10,1,7,8,-5.7,-14

Part of the list above, as labelled records.
COC(=O)c1ccsc1NS(=O)(=O)c1ccccc1
  A1 inh: -0.1	T cruzi inh: -11	LANA-H2B inh: 1.4	Calb FLC: 10	ALR inh: 80*	Beta cell apopt: 2	Ecoli rRNA inh: 15	Ecoli rRNA inh OD600: 6	Ecoli rRNA inh RFP: 16	Beta2AR agonist: 4

C/C(=N\NC(=O)C(=O)Nc1cc(Cl)ccc1Cl)c1ccncc1
  A1 inh: -1.0	T cruzi inh: -6	LANA-H2B inh: 1.4	Calb FLC: -2	ALR inh: -6	Beta cell apopt: 4	Ecoli rRNA inh: 5	Ecoli rRNA inh OD600: 3	Ecoli rRNA inh RFP: 0.1	Beta2AR agonist: -8

COc1ccc(-c2cc3ccc(O)cc3oc2=O)cc1OC
  A1 inh: -6.8	T cruzi inh: -5	LANA-H2B inh: -0.9	Calb FLC: -5	ALR inh: 99*	Beta cell apopt: 0	Ecoli rRNA inh: -15	Ecoli rRNA inh OD600: -15	Ecoli rRNA inh RFP: -1.4	Beta2AR agonist: 2

Cc1ccc(SC(C)C(=O)NCc2cccnc2)cc1 (stereo unspecified)
  A1 inh: -0.1	T cruzi inh: -19	LANA-H2B inh: 2.5	Calb FLC: 2	ALR inh: -2	Beta cell apopt: -7	Ecoli rRNA inh: /	Ecoli rRNA inh OD600: /	Ecoli rRNA inh RFP: /	Beta2AR agonist: 5

(further entries)
Structure,A1 inh,T cruzi inh,LANA-H2B inh,Calb FLC,ALR inh,Beta cell apopt,Ecoli rRNA inh,Ecoli rRNA inh OD600,Ecoli rRNA inh RFP,Beta2AR agonist
Cc1cc(C)c(S(=O)(=O)N2CCCOC2CNC(=O)C(=O)NCCCn2ccnc2)c(C)c1 (stereo unspecified),0.5,-5,-0.6,-5,-24,9,/,/,/,-5
COc1ccc2ccc(OCC(=O)N3c4ccccc4NC(=O)CC3C)cc2c1 (stereo unspecified),-0.2,/,-2.3,/,12,1,-6,-5,1.0,4
Cc1cc(C)cc(N(CC(=O)NCc2ccc3c(c2)OCO3)C(=O)CCC(=O)Nc2ccccn2)c1,0.0,12,2.4,17,-3,-4,/,/,/,-5
Cc1nn(-c2ccccc2)c(C)c1/C=N/n1c(-c2ccc(C(C)(C)C)cc2)n[nH]c1=S,-1.9,11,-1.1,-6,-1,2,/,/,/,7
CC(=O)N1CCC(O)(c2cccc(C(F)(F)F)c2)CC1,0.5,7,1.0,-4,0,-4,/,/,/,7
CCOC(=O)c1cnc2ccccc2c1Nc1cccc(C(=O)O)c1,-0.4,-13,-4.9,9,-8,0,6,2,-0.9,-3
COc1ccc(-c2nn(-c3ccccc3)cc2C(=O)Nc2ccc(C(=O)O)cc2)cc1,0.6,5,-4.0,10,62,-5,-1,8,-0.4,-12
CCCNc1nc2c(c(=O)n(C)c(=O)n2C)n1CCC(C)C,0.0,12,-1.6,16,69,3,/,/,/,6
COc1ccccc1-c1c(C(F)(F)F)oc2cc(OCC(=O)Nc3cc(C)ccc3C)ccc2c1=O,-0.4,-28,4.6,3,-6,2,/,/,/,/
COc1ccc(CC(=O)Nc2cccc(C)n2)cc1OC,0.0,-23,-6.7,-2,-15,0,-3,-3,-2.2,-5
COc1ccc(NC(=O)CC2SC3=NCCN3C2=O)cc1 (stereo unspecified),-0.1,-7,2.6,-2,-6,-3,17,7,-4.8,0
COC(=O)NNC(=O)c1ccc(Cl)cc1Cl,0.1,-18,2.5,-5,-3,2,/,/,/,-16
CCN1CCCC1CNCc1cccc(OC)c1OCc1ccccc1F (stereo unspecified),0.2,12,7.9,4,1,9,6,3,-2.0,5
Cc1ccccc1C(=O)Nc1ccc(CN2CCOCC2)cc1,-0.7,0,-0.4,-3,-5,/,6,10,-1.1,4

These rows are one share of the data. The share of hits here may be higher or lower than overall.
